# Screening data (PubChem BioAssay)
# Arbovirus anti – blocks arbovirus infection. arbovirus infection cell-based antiviral screen. inhibition, % at 10 µM. 200,000 tested, 0.37% active. AID 1251;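 active means inhibition from about 30%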;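 further: bluetongue infection of BSR cells; cell survival read as ATP light after 72 h; 0% = infected wells without compound and 100% = uninfected wells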
# RecA splice inh – inhibitors of M. tuberculosis RecA intein splicing. 290,000 tested, 0.75% active. inhibition, %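 (about 9 µM by stock and volumes)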. cell-free RecA intein splicing, fluorescence. AID 2221; in the data active means inhibition above about 30%; inconclusive means no clear call, values can overlap the other calls;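 further: 0% = vehicle wells and 100% = reference inhibitor control wells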
# Target sequence (P9WHJ3 whole entry, looked up, canonical isoform): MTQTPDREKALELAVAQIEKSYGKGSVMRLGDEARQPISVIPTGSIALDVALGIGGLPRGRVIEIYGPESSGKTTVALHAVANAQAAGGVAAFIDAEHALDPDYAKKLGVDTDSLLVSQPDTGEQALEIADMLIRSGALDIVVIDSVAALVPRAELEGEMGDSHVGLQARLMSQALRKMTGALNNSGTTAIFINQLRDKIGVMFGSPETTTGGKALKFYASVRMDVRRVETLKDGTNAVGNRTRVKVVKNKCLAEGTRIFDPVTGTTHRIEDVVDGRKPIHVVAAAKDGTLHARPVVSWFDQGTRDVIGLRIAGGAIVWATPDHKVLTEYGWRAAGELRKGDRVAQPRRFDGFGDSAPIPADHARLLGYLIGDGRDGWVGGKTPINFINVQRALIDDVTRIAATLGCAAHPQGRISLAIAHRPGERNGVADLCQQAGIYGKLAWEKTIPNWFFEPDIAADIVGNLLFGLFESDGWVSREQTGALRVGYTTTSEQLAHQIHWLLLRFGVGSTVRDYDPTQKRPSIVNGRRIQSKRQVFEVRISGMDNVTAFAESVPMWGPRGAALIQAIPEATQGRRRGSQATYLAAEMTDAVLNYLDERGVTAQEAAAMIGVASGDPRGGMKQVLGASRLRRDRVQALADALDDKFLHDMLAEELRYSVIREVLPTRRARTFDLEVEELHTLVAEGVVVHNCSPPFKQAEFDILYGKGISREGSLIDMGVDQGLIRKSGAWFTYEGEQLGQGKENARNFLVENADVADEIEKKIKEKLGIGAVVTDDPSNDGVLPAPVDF
# Mtb growth – M. tuberculosis H37Rv growth inhibitors, H37Rv strain (AID 1626). M. tuberculosis H37Rv growth inhibition; higher % means a stronger effect. inhibition, % at 10 µM, or IC50 in µM where a hit was titrated. 220,000 tested, 0.95% active;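 active means confirmed in a dose series; inconclusive means inhibition above 80% but not taken into the dose series; inactive means below 80% or under 30% at every dose of the series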;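 further: bacteria incubated seven days before Alamar blue readout; 0% = bacteria only wells and 100% = bacteria with antibiotic wells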
# YopH inh – blocks Yersinia enterocolitica YopH tyrosine phosphatase; fluorescence Ex485/Em525; inhibition, %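 (about 10 µM by stock and volumes)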; 140,000 tested, 0.16% active; AID 898;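 active means inhibition of 50% or more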;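 further: controls were vehicle for no effect and minimum signal wells for full effect; inactives centre near -20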
# Mtb betalactam – beta-lactam sensitization of Mtb H37Rv; M. tuberculosis H37Rv growth with meropenem, percent inhibition; hits of this screen are not shown here; inhibition, % at 25 µM; 330,000 tested, 0.27% active; AID 434955;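 active means about 74% or more and at least 40 points above the plate without the antibiotic, then above 30% in a dose series; inconclusive means first-round hits that could not be retested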;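 further: growth measured after seven days incubation then overnight dye step; 0% = bacteria only wells and 100% = bacteria with antibiotic; twin plates without the antibiotic show which effects depend on it; some results filed as inactive read as strong as hits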
# Arbovirus anti repeat – also measured in Arbovirus anti; calls as there; inhibition, %; measured here: 10K subset replicate screen; many hits read low in the repeat;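 first of two repeat runs on a subset; 0% = infected and 100% = uninfected wells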
# * = called active by the depositor; ? = inconclusive; / = no result given.
SMILES,Arbovirus anti,RecA splice inh,Mtb growth,YopH inh,Mtb betalactam,others
CCOc1ccccc1NC(=S)N(CCN(C)C)C(C)c1ccncc1 (configuration not stated),-1,-1.3,0%,/,4,
O=[N+]([O-])c1ccc2nc(C3CCCCC3)[nH]c2c1,/,1.8,/,/,-5,
CC(=O)N1CCOc2ccc(S(=O)(=O)NCCc3ccc(C)cc3)cc21,/,0.7,/,/,-1,
Cc1ccc2nc(-c3cccc(S(=O)(=O)N(C)C)c3)cn2c1,-3,-2.3,3%,-31,48,
Cn1ncc(Cl)c1C(=O)N1CCCc2ccccc21,11,0.9,-7%,-6,27,
S=C(N=Nc1ccccc1)NNc1ccccc1,2,0.9,-2%,-15,4,
CSc1ccc(CCNC(=O)CCc2nnc3ccc(N4CCCC4)nn23)cc1,/,1.7,/,/,45,
CN1C(=O)[C@@H]2[C@H](C1=O)[C@@H]1C(=O)Nc3ccccc3C(=O)N1[C@@H]2c1cccc(Br)c1,/,-3.1,/,/,-3,
CCCOc1cccc(C2/C(=C(\O)c3ccc4c(c3)OCCO4)C(=O)C(=O)N2CCCn2ccnc2)c1 (configuration not stated),/,5.4,/,/,-8,
COc1ccc(Cn2nnnc2CN2CCN(c3ccc(OC)cc3)CC2)cc1,5,-0.2,-2%,/,0,

# Continued (4 carried over from the part before).
SMILES,Arbovirus anti,RecA splice inh,Mtb growth,YopH inh,Mtb betalactam,others
CSc1ccc(CCNC(=O)CCc2nnc3ccc(N4CCCC4)nn23)cc1,/,1.7,/,/,45,
CN1C(=O)[C@@H]2[C@H](C1=O)[C@@H]1C(=O)Nc3ccccc3C(=O)N1[C@@H]2c1cccc(Br)c1,/,-3.1,/,/,-3,
CCCOc1cccc(C2/C(=C(\O)c3ccc4c(c3)OCCO4)C(=O)C(=O)N2CCCn2ccnc2)c1 (configuration not stated),/,5.4,/,/,-8,
COc1ccc(Cn2nnnc2CN2CCN(c3ccc(OC)cc3)CC2)cc1,5,-0.2,-2%,/,0,
Cc1ccc2[nH]c(C)c(CCNC(=O)c3c(N)no[n+]3[O-])c2c1,-6,-3.8,-5%,/,-3,
Cc1ccc(CN2C(=O)C(Cc3ccccc3)Nc3ncnc(N4CCN(c5ccccc5)CC4)c32)cc1 (configuration not stated),/,6.5,/,/,29,
CCOC(=O)C1CCN(c2cc3c(cc2NC(=O)c2ccccc2OCC)n(C)c(=O)n3C)CC1,/,1.4,/,/,85,
CC(=O)Nc1cccc(/C(C)=N/NC(=O)c2cccc(S(=O)(=O)N3CCOCC3)c2)c1,4,-0.1,5%,/,4,
Cc1ccc(S(=O)(=O)N2CCCC(c3nc(-c4ccc(C)o4)no3)C2)cc1 (configuration not stated),2,1.0,0%,-27,-2,
CCN(CC)CCC(=O)Nc1ccc2c(c1)N(C(=O)CN(CC)CC)c1ccccc1CC2,1,-2.9,-10%,-8,4,
COc1ccc(NC(=S)NC(NC(=O)C(C)C)C(Cl)(Cl)Cl)c([N+](=O)[O-])c1 (configuration not stated),2,0.0,-8%,-20,-5,
Cc1ccc(NC(=S)NNC(=O)c2ccccc2OC(F)F)cc1,-19,-4.9,/,-27,2,
CCc1cc2c(SCc3nc4sc(C(C)=O)c(C)c4c(=O)[nH]3)ncnc2s1,/,-0.6,56%,/,86,
CCOC(=O)c1ccc(N2CSC3=C(C#N)C(c4cccs4)CC(=O)N3C2)cc1 (configuration not stated),0,-1.7,30µM*,-42,-6,Arbovirus anti repeat=2
COc1ccc(CN2CCC(n3nccc3NC(=O)C3CCCC3)CC2)cc1,/,-1.9,/,/,-5,
Cc1ccc(NC(=O)C2CCCN(S(=O)(=O)c3cccnc3)C2)cc1C (configuration not stated),/,-8.9,/,/,-3,
Cc1cccc(N(Cc2ccccc2)C(=O)c2cccc(S(=O)(=O)N3CC(C)OC(C)C3)c2)c1 (configuration not stated),/,13,/,/,-7,
O=C(O)CCCn1c(=S)[nH]c2c(sc3ccc([N+](=O)[O-])cc32)c1=O,6,4.9,7%,/,-6,
COC(=O)c1ccc(NC(=O)c2cccc(NC(=O)c3ccco3)c2)cc1,/,-1.4,/,/,5,
O=c1[nH]c(C2CCN(S(=O)(=O)c3ccc4c(c3)OCCO4)CC2)nc2c1nnn2Cc1cccc(F)c1,/,-0.1,/,/,20,
CCS(=O)(=O)N1N=C(c2cccc(NS(C)(=O)=O)c2)CC1c1ccccc1 (configuration not stated),0,0.3,7%,/,-2,
Cc1ccc(-n2nnc(-c3nccs3)n2)cc1,-5,0.8,-3%,/,-2,
COc1ccc(NC(=O)CC2SC(=NCC3CCCO3)NC2=O)cc1 (configuration not stated),2,-4.2,2%,-4,-4,
COc1ccc(CCNC(=O)CCCNC(=O)Cn2cnc3sc(C)c(C)c3c2=O)cc1OC,4,0.4,1%,/,-4,
Cn1c[n+](C)cc1/C=N/O,5,0.1,6%,-38,-9,
COc1ccc(C(=O)COC(=O)c2c(-c3ccccc3)noc2C)c(OC)c1,/,0.1,/,/,0,
O=C(Nc1cccnc1)c1c(O)c2cccc3c2n(c1=O)CC3,-5,3.7,1.9µM*,-15,100,
O=C(CSc1cccc[n+]1[O-])Nc1c(Br)cc([N+](=O)[O-])cc1Br,-2,0.7,-1%,/,-6,
Cc1cc(C(=O)COc2ccccc2C(N)=O)c(C)n1C1CC1,-4,-0.2,6%,/,1,
CCOc1ccccc1N1CCN(C(=O)CNC(=O)c2ccccc2F)CC1,/,-1.4,/,/,-3,
COc1ccc(CCN2C(=O)NC(NC(=O)CCc3ccccc3)(C(F)(F)F)C2=O)cc1OC (configuration not stated),6,-0.1,2%,-6,-6,
O=C(Nc1cccc2nsnc12)c1ccc2c(c1)OCO2,-6,-6.4,12%,-22,-2,
Cc1cccc(OCC(=O)OCC(=O)N(CC(C)C)c2c(N)n(Cc3ccccc3)c(=O)[nH]c2=O)c1C,/,-0.7,/,/,-6,
Cc1cc(C(=O)Nn2c(-c3ccncc3)nc3ccccc3c2=O)ccc1[N+](=O)[O-],2,2.2,5%,/,1,
COc1ccc(-c2cc(=NCCCCCC(=O)O)c3cc(C)ccc3o2)cc1,-5,-38,4%,/,/,
Cc1ccc(-c2nc(N3CCN(C)CC3)c3ccccc3n2)cc1,/,2.5,/,/,3,
O=C1c2cccc3cccc(c23)N1Cc1ccc(F)cc1,-4,-16,4%,-18,2,
Cc1ccc(NC(=O)CSc2nc3ccccc3c3nc(CCc4c(C)n[nH]c4C)nn23)cc1F,11,-2.2,-8%,-26,13,
CC(C)CC(=O)Nc1ccc(S(=O)(=O)NCc2ccco2)cc1,6,-0.2,1%,-28,1,
COC(=O)c1ccc(C(=O)OC)c(NC(=O)CN2CCN(c3ccc(OC)cc3)CC2)c1,-1,1.4,14%,-19,13,
Cc1ccc(-n2c(SCc3nc4ccccc4c(=O)[nH]3)nnc2-c2ccccc2O)cc1,16,-3.2,9%,-10,-4,
O=C(CCCn1cc([N+](=O)[O-])cn1)NCc1ccccc1,6,-4.4,-2%,/,-8,
Cc1occc1C(=O)N/N=C/c1ccc(OCc2ccccc2)cc1,/,2.4,13%,/,72,
O=C(Cc1ccccc1)NCCc1cccc(Cl)c1,-8,-3.3,9%,-30,5,

# Next section, starting with the last two of the part before.
SMILES,Arbovirus anti,RecA splice inh,Mtb growth,YopH inh,Mtb betalactam,others
Cc1occc1C(=O)N/N=C/c1ccc(OCc2ccccc2)cc1,/,2.4,13%,/,72,
O=C(Cc1ccccc1)NCCc1cccc(Cl)c1,-8,-3.3,9%,-30,5,
CCOC(=O)N1CCN(c2cc(=O)n(C)c(=O)n2C)CC1,/,0.0,7%,/,-6,
O=C(N/N=C/c1ccco1)C(O)C(O)C(=O)N/N=C/c1ccco1 (configuration not stated),/,-0.3,/,/,3,
Oc1c(N=Nc2ccccn2)ccc2ccccc12,-26,7.2,2%,-35,13,
CCC(C)NC(=O)c1cc(Cl)ccc1OC (configuration not stated),-6,-1.2,-12%,2,-1,
CCC(C)[C@H]1CNCCN1CC1(c2ccccc2)CC1 (some centres not stated),/,-1.7,/,/,-4,
Cc1cccc(NC(=S)N2CCC(O)CC2)c1C,-2,-1.3,4%,/,0,
Cc1ccccc1C(=O)NCCc1nnc(SCC(=O)Nc2nc(-c3ccccc3)cs2)n1C,-4,3.7,4%,-23,-3,
OC(COC(c1ccc(Cl)cc1)c1ccc(Cl)cc1)CN1CCN(c2ccccn2)CC1 (configuration not stated),-39,29,9.8µM*,-9,100,
Cc1nn(CC(=O)NCc2ccc(C(=O)O)cc2)c(C)c1[N+](=O)[O-],-3,-3.3,1%,/,-7,
Cc1oc(/N=C/c2ccccc2O)c(C#N)c1C,1,2.2,-8%,-1,2,

# Brought forward from above: 3 entries, then new ones.
SMILES,Arbovirus anti,RecA splice inh,Mtb growth,YopH inh,Mtb betalactam,others
OC(COC(c1ccc(Cl)cc1)c1ccc(Cl)cc1)CN1CCN(c2ccccn2)CC1 (configuration not stated),-39,29,9.8µM*,-9,100,
Cc1nn(CC(=O)NCc2ccc(C(=O)O)cc2)c(C)c1[N+](=O)[O-],-3,-3.3,1%,/,-7,
Cc1oc(/N=C/c2ccccc2O)c(C#N)c1C,1,2.2,-8%,-1,2,
CCn1c(=O)cc(SCC(=O)N2CCC(C)CC2)c2ccccc21,-6,-0.7,-3%,-19,-2,
COc1cccc(-c2csc(N3CCN(C(=O)Nc4ccccc4Cl)CC3)n2)c1,1,/,-4%,/,27,
N#Cc1ccc(OS(=O)(=O)c2ccc(-c3ccon3)s2)cc1,/,1.0,/,/,9,
CCOC(=O)c1ccc(-n2c(CN3CCC(C(N)=O)CC3)nc3ccc([N+](=O)[O-])cc3c2=O)cc1,-2,3.4,?,/,73,
Oc1ccc(Nc2nc(-c3cccs3)cs2)cc1,-6,-0.8,0%,-7,5,
CCn1c(COc2ccc(Cl)cc2)nnc1SCc1ccc(C#N)cc1,-1,0.0,12%,-34,21,
CCn1c(=O)cc(NC2=NCC(C)CN2c2cccc(Cl)c2)n(C)c1=O (configuration not stated),1,4.5,-3%,-38,5,
CCOC(=O)C1=NN(c2ccccc2C)C2=NC(C)=C(C(=O)OC)C(c3cccs3)N12 (configuration not stated),0,8.2,-1%,-17,-1,
O=C(Nc1ccccc1C(=O)Nc1ccccc1)c1ccco1,/,-0.4,/,/,-4,
Cc1c(NC(=O)C2CCCCN2S(=O)(=O)c2ccc(Cl)cc2)c(=O)n(-c2ccccc2)n1C (configuration not stated),4,1.4,-9%,5,-5,Arbovirus anti repeat=0
CC(C)OCCCNc1ncc2c(n1)CC(c1cccs1)CC2=O (configuration not stated),0,-6.7,0%,/,6,
O=C(/C=C/c1ccccc1)NNC1=NS(=O)(=O)c2ccccc21,4,1.6,-8%,/,6,
CS(=O)(=O)c1ccc(Cl)c(NC(=O)COC(=O)c2ccc(F)cc2Cl)c1,0,0.9,48%,/,-4,
COc1ccc(NC(=O)c2onc(C)c2Cl)cc1,/,0.8,2%,/,-6,
CN(C)S(=O)(=O)c1cccc(NC(=O)COC(=O)/C=C/c2ccc3c(c2)OCO3)c1,5,-1.2,7%,/,5,
Cn1c(=O)c2c(SCC(=O)N3CCN(c4ccccc4)CC3)nc(C3CC3)nc2n(C)c1=O,-5,-0.6,-6%,/,-1,Arbovirus anti repeat=-3
COc1ccc(C(C(=O)NCC2CCCO2)N(C(=O)Cn2nnc3ccccc32)c2ccccc2C(C)=O)cc1OC (configuration not stated),/,0.4,/,/,4,
Cc1cccc(C)c1N1C(=O)c2cccc([N+](=O)[O-])c2C1=O,-14,-2.6,0%,-23,-1,
CCC(C)(C)NC(=O)C(c1ccc(F)cc1)N(Cc1ccco1)C(=O)CCC(=O)Nc1ccccn1 (configuration not stated),-3,-6.4,3%,-26,1,
COCCNc1c(-c2cc3ccc(C)c(C)c3[nH]c2=O)nc2ccccn12,-6,-3.2,-8%,/,-1,
O=C(O)CSc1nc(-c2cccs2)cc(C(F)(F)F)n1,14,/,-5%,/,-4,
O=C(CSc1nc2ccccc2o1)NCCOc1ccccc1,-1,1.4,7%,2,96,
CCN(/C=N/c1sc2c(c1C#N)CC(C)(C)NC2(C)C)CC,1,0.4,2%,-30,3,
CCN1/C(=C2/SC(=S)N(NC(C)=O)C2=O)Sc2ccc(OC)cc21,/,-1.3,/,/,2,
O=C(c1ccco1)N(Cc1ccc(Cl)cc1)Cc1ccco1,/,0.3,/,/,-4,
COc1ccc(CN(C)C(C)C(=O)Nc2ccc(S(=O)(=O)N3CCCC3)cc2)c(OC)c1OC (configuration not stated),3,-1.9,-11%,/,-4,
S=c1nc2ccccc2c2nc(-c3cccnc3)[nH]n12,/,0.0,/,/,9,
Cc1cc(C)n2c(SCC(=O)N(C)C3CCCCC3)nnc2n1,1,2.1,1%,/,2,

# Some of the compounds tested; rates above refer to the full screens.
